From PubChem BioAssay
ALR inh = blocks human ALR sulfhydryl oxidase activity; purified ALR, DTT oxidation, H2O2 HRP-luminol luminescence; actives 3.8% (n = 290,000); inhibition, % (no concentration beside the values); AID 485317; P55789;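 active means mean and each replicate at 75% or more; inconclusive means only one of the two met; inactive means neither met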;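 further: stock transfer was 7.5 nL into about 7.5 µL; 0% = neutral wells and 100% = wells with inactivated enzyme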
Target sequence (P55789 whole entry, looked up): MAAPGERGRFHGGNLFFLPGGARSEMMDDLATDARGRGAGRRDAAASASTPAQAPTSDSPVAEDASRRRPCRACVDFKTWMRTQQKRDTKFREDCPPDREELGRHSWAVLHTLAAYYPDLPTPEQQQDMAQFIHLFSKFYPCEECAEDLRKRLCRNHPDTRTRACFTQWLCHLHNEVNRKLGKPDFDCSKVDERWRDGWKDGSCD
Ecoli rRNA inh = inhibitors of bacterial rRNA selective over humanized ribosomes | E. coli WT GFP vs humanized-ribosome RFP mutants, fluorescence, 24 h; active compounds read low; DMSO median 0, no signal -100 | actives 1.6% (n = 350,000) | GFP signal change (wild-type ribosome), % (no concentration beside the values);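 active means significant combined selectivity score with lowered wild-type GFP, culture density cut under 30%, mutant RFP and density less affected; inactive means any of these conditions unmet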; further: one replicate is shown; some compounds called inactive have numbers as strong as hits
Beta apoptosis = blocks beta cell apoptosis. INS-1E cytokine-induced death, ATP luminescence, 48 h; percent of positive-control rescue, neutral wells zero. protection from apoptosis, % (concentration not given with the values). actives 0.8% (n = 300,000). AID 435005;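 active means all replicates at 75% or more, or half of them and the mean; inconclusive means half reach 75% but not the mean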;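 further: 0% = cytokine-treated negative control wells and 100% = positive control rescue; higher means more ATP so stronger rescue from cytokine killing; wells of about 40 µL received 100 nL stock; the first replicate is given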
Calb FLC = C. albicans growth modulation with fluconazole. C. albicans CaCi-2 (fluconazole-resistant clinical isolate) + fluconazole, Alamar Blue growth, 48 h. actives 0.57% (n = 300,000). growth inhibition, % (test concentration not listed);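 active means most replicates above 75%; inconclusive means exactly half above 75%; inactive means most below 75%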;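 further: all wells also contain fluconazole at 8 µg/ml as a sub-toxic cotreatment; 0% = median of DMSO wells and 100% = median of geldanamycin control wells; wells of about 8 µL received 7.5 nL stock; the first replicate is given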
T cruzi repl = T. cruzi replication inhibition; T. cruzi beta-gal in NIH3T3, luminescence, 90 h; inhibition, % (no concentration beside the values); actives 1.4% (n = 300,000); AID 1885;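 active means mean inhibition across valid replicates above about 55%, limit read from the data; inconclusive means mean below that limit but half or more replicates reach it; inactive means mean below it, under half of replicates reach it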;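 further: signal also drops with host cell toxicity which is not excluded here; 0% = plate median of DMSO wells and 100% = zero luminescence signal; higher percent means less beta-gal luminescence so fewer parasites; stock transfer was 50 nL into about 50 µL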
Beta2AR agonist = human beta-2 adrenergic receptor agonism by FAP; P07550; Am2.2-beta2AR cells, FAP receptor internalization, flow cytometry; reference of the scale not given here; response, % (test concentration not listed); actives 0.43% (n = 340,000);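 active means response above a set limit, near 3 SD of response in nonfluorescent compounds, cut at about 42% in these data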;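 further: stock transfer was 100 nL into about 11 µL; a reference agonist was the positive control; negative values mostly stem from fluorescent compounds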
Target sequence (P07550 whole entry, looked up): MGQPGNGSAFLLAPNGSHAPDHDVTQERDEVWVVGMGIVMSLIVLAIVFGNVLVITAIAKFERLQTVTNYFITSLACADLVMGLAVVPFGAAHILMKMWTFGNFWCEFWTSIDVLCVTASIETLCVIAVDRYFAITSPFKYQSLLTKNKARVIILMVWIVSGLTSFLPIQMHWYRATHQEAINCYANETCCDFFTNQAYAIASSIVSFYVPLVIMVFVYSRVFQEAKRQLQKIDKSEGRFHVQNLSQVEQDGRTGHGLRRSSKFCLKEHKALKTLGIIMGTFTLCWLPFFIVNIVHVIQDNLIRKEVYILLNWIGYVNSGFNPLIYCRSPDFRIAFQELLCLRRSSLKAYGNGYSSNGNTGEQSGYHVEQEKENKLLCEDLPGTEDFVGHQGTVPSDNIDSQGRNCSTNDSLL
LANA-H2B inh = blocks KSHV LANA binding to histone H2A/H2B; AID 2629; actives 0.6% (n = 320,000); cell-free LANA-H2A/H2B peptide, fluorescence polarization; inhibition, % (no concentration beside the values); in the data active means inhibition mostly above about 10%, no sharp cut-off; inactive means mostly below about 6.7%;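 further: stock transfer was 7.5 nL into about 10 µL; 0% = median of vehicle wells and 100% = median of positive control wells; one replicate is shown; the record names a cut of 25% in any replicate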
A1 inh = inhibitors of the anti-apoptotic protein A1, read as caspase activation. caspase activation, % (no concentration beside the values). actives 0.066% (n = 330,000). MEF A1-2A-BIM cells, Caspase-Glo 3/7 luminescence, 3 h; percent of clofoctol response, vehicle zero;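 active means over half of replicate activation scores above 10%, or exactly half above 10 with the replicate mean above 10; inconclusive means replicate mean below 10 yet half the replicates above 10; inactive means over half of replicates below 10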;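 further: wells of about 30 µL received 50 nL stock; many hits fall short of the cut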
Ecoli rRNA inh OD600 = also measured in Ecoli rRNA inh; calls as there; OD600 change, %; measured here: OD600 growth;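 optical density of the mix in the first replicate; 0 = DMSO median and -100 = no signal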
Ecoli rRNA inh RFP = second read-out of Ecoli rRNA inh, no call of its own (marks repeat the call); RFP signal change, %; measured here: RFP humanized mutant strains;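 first replicate; 0 = DMSO median and -100 = no signal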
* hit, by the source's call; ? = inconclusive; / = no result given. The list is partial; the hit share may differ from the screen's.

Order of values: ALR inh, Ecoli rRNA inh, Ecoli rRNA inh OD600, Ecoli rRNA inh RFP, Beta apoptosis, Calb FLC, T cruzi repl, Beta2AR agonist, LANA-H2B inh, A1 inh
- CCOc1ccc(NC(=O)CN2CCN(C(=O)C3CCCO3)CC2)cc1 (centres undefined)
→ -6, 2, 12, 0.9, -6, 0, -2, 4, 0.8, 2.3
- O=C(NCC(=O)N(c1ccc(F)cc1)C(C(=O)NC1CCCC1)c1cccnc1)c1ccco1 (centres undefined)
→ 10, 5, 10, -0.3, 4, 1, -4, -9, 1.8, 0.8
- Cc1csc(C)[n+]1CC(=O)c1ccccc1
→ -18, 3, 10, -1.8, 1, -5, -14, -4, -0.5, -0.4
- COc1cc2c(cc1OC)/C(=C/c1ccc(Br)cc1)C(=O)OC2
→ 36, /, /, /, 2, -2, -14, -5, -1.8, -0.1
- S=C(NCc1cccnc1)NCc1cccnc1
→ -4, -4, 6, -2.4, -2, 10, -6, 0, -2.1, 0.0
- O=C(COC(=O)CCCc1nc2ccccc2s1)Nc1ncc(Cl)cc1Cl
→ -10, 8, 2, 3.3, -4, 12, -3, 11, -0.1, -0.2
- C[C@H]1CN=C(N(C)C)N1CCC1CCCC1
→ -24, 18, 16, -3.1, -10, /, /, 1, -3.7, 1.0
- C=CCn1c(SCC(=O)N2CCOCC2)nc2ccccc2c1=O
→ 0, 1, -1, -3.0, -9, 0, -5, -1, 0.5, -1.2
- COc1ccc(CCNC(=O)c2cc3c(=O)n4ccccc4nc3n(Cc3ccco3)c2=N)cc1OC
→ -9, 16, 14, 2.1, /, 3, 31, 32, 3.3, 0.6
- Cc1cc(C(=O)COc2ccc(F)cc2Br)c(C)n1C
→ -5, 7, -3, 10, -8, -14, 4, 6, -1.3, -0.1
- O=C(CN1CCN(S(=O)(=O)c2ccc3ccccc3c2)CC1)Nc1ccc(N2CCOCC2)cc1
→ /, 6, 0, -1.3, -11, -10, 3, 3, -6.0, 0.0
- O=C(CCCNC(=O)c1ccc(Cl)cc1)Nc1cccc(F)c1
→ 1, -9, -5, 6.1, -4, 1, -10, -3, -1.9, 0.0
- CCn1cc(C(=O)N2CCc3ccccc32)c(=O)c2cc(S(=O)(=O)N3CC(C)CC(C)C3)ccc21 (centres undefined)
→ -18, -4, -5, 1.3, 5, -2, 9, -15, 1.5, -1.6
- CC1CCc2sc3ncnc(N4CCN(CCO)CC4)c3c2C1 (centres undefined)
→ -15, -15, -15, -1.4, 2, -14, 10, -8, 1.2, 0.9
- Cc1ccc2nc(=O)c(NNc3ccccc3)cnc2c1
→ -1, 7, 13, -2.7, 8, -40, -16, -14, 1.4, -2.0
- CN(C)CCN(C(=O)C1CCN(S(=O)(=O)c2cccs2)CC1)c1nc2ccc(F)cc2s1
→ /, 19, 9, 2.6, 1, -1, 49, 0, -0.5, 0.3
- CCCCN(c1ccccc1)c1ncnc(N)c1[N+](=O)[O-]
→ -28, 13, 16, -7.8, -11, -28, 10, -3, -0.6, 0.0
- CC(C)[C@H](NC(=O)c1ccc(C(C)(C)C)cc1)C(=O)N1CCN(Cc2ccc3c(c2)OCO3)CC1
→ -1, -5, -16, 11, 25, /, /, 4, -2.8, 1.7
- O=C(c1ccco1)N1CCN(C(=O)c2cnn(-c3cccc(F)c3)c2C2CCNCC2)CC1
→ -25, 3, 7, -2.6, -2, 0, -8, 0, 2.5, -0.6
- COc1ccc(S(=O)(=O)NC2(C(F)(F)F)N=C(c3ccccc3)NC2=O)cc1 (centres undefined)
→ -4, 3, 14, 13, -2, 10, -26, 4, 4.4, 0.3
- CCN(C(=O)Cn1c(=O)n(-c2cc(OC)c(OC)c(OC)c2)c(=O)c2ccccc21)c1cccc(C)c1
→ -28, 5, 1, -2.6, 4, 26, -1, -3, 2.3, 0.9
- COC(=O)c1sc(NC(=O)C(C)C)c(C(=O)OC)c1C
→ -6, /, /, /, 2, 11, -5, -4, -0.8, 0.1
- CN(c1ccccc1)S(=O)(=O)c1cccc(C(=O)NC2CCCC2)c1
→ -12, -20, -52, -5.9, -1, /, /, -7, -3.5, -0.7
- CC(=O)Nc1ccc(SCC(=O)N(C)CC(=O)Nc2ccccc2Cl)cc1
→ 98*, /, /, /, -1, /, /, -3, 0.8, 1.8
- O=C(COc1ccc2c(c1)CCC2)N1CCN(c2ccccc2F)CC1
→ -5, /, /, /, -2, -11, 0, -4, 0.5, -0.3
- O=C(Nc1ccc(Br)cc1)c1cccc(-n2cnnn2)c1
→ 0, -12, -13, -0.4, 3, 3, -1, -2, -2.1, 1.2
- CC(C(=O)NC1CCCCC1)N1CCN(S(=O)(=O)c2cccs2)CC1 (centres undefined)
→ /, 5, 12, 1.5, -5, /, /, -5, 0.4, 0.5
- Cn1nc(C(F)(F)F)c(-c2ccc(Br)cc2)c1NC(=O)Nc1ccc(F)cc1F
→ /, -40, -41, -5.5, 32, -3, 47, 13, -0.7, 0.6
- CC(C)(C)C(=O)N(Cc1ccc(Cl)cc1)c1cnccn1
→ 0, -4, 0, -0.6, -1, -29, 18, 0, -1.7, 1.1
- Cc1cc(=O)oc2c(C)c(OCC(=O)N3CC[C@@]4(O)CCCC[C@H]4C3)ccc12
→ -4, 6, 8, 11, 4, 3, 1, 6, -6.9, 0.3
- COC(=O)c1cc2c(ccn2-c2ccc(F)cc2)n1CC(=O)C(C)(C)C
→ /, 5, 8, 0.0, 13, -5, 17, -3, 0.6, -0.8
- CCCN(CCC)c1nc2ccccc2n2c(C)nnc12
→ /, /, /, /, -1, -9, 36, -4, -1.0, -0.3
- Cc1ccc(-c2nn(-c3ccc(F)cc3)cc2C(=O)NC2CCC(O)CC2)cc1 (centres undefined)
→ /, 13, 4, -0.1, /, 5, 0, -7, 2.6, -0.3
- CC(=O)c1c(C)[nH]c(C(=O)N2CCN(c3ncccn3)CC2)c1C
→ 22, -1, 2, -1.0, -2, -7, -19, -3, 2.9, 0.2
- CCN1CCN(C(C)C(=O)NC2CCCCC2)CC1 (centres undefined)
→ 2, 1, 1, 2.7, -3, -2, 3, 1, -1.2, 1.2
- O=C(c1ccc(Cl)cc1[N+](=O)[O-])N1CCc2ccccc2C1
→ -19, -8, -14, -5.0, 0, -16, 23, 3, -3.2, 0.2
- Cc1c(NC(=S)NC(=O)c2cccc(Cl)c2)c(=O)n(-c2ccccc2)n1C
→ 40, 0, -4, 6.6, -3, 7, -12, -2, 5.2, 0.0
- N#CCCN(C(=O)Cn1nc(C(=O)O)c2ccccc2c1=O)c1ccccc1
→ -5, 0, 8, -1.5, -1, 3, -2, 0, 3.0, -0.1
- C=CCC(NC(=O)Cc1ccccc1)C(=O)NCCC (centres undefined)
→ 18, 12, 9, -0.9, -5, /, /, 4, 1.0, -0.3
- O=C(Oc1cccc(C(=O)N2CCOCC2)c1)c1ccc(Br)cc1
→ -4, /, /, /, -1, 3, 0, 0, -0.8, -0.3
- CCc1ccc(CNC(=O)c2cc3c(C)nc4ccccc4c3o2)cc1
→ 1, -2, -36, 46, 53, 0, 26, 1, -5.6, 0.2
- Cc1onc(-c2c(Cl)cccc2Cl)c1COC(=O)c1ccc(Cl)cc1
→ 1, -14, -7, 1.9, -3, 1, 1, 6, 3.0, -0.2
- COc1cc(NC(=O)C2CC2C)c(C(=O)O)cc1OC (centres undefined)
→ 3, /, /, /, /, -12, -5, -1, 1.5, 1.2
- O=C(Nc1cccnc1Cl)c1ccc(S(=O)(=O)N2CCCCCC2)cc1
→ -4, /, /, /, -3, -16, -3, 9, -0.3, 0.2
- O=C(COC(=O)c1ncc(Cl)c(Cl)c1Cl)NC(=O)c1ccccc1
→ 16, 3, 2, -3.1, 0, /, -22, -8, 3.1, 0.2
- CN(C)CCNC(=O)C1(O)c2cc(Br)ccc2NC(=O)N1c1ccc(Cl)cc1 (centres undefined)
→ -6, 8, 1, 4.6, 0, -6, -8, -4, 1.8, 1.4
- COC(=O)[C@H](CC(C)C)NC(=O)N1CCC(C)CC1
→ -18, 15, 5, 3.0, -5, -7, -3, -2, -2.2, 0.4
- Cc1ccc(NC(=O)c2cc(NC(=O)c3ccco3)ccc2N2CCOCC2)cc1Cl
→ 0, /, /, /, 6, -7, 18, -24, -0.3, 0.7
- CC(C)c1c(C(=O)N/N=C/c2ccncc2)nnn1-c1nonc1N
→ -4, -3, 2, 1.4, -1, -9, 1, 0, -2.7, 1.1
- NC(=O)c1ccc(=O)n(Cc2ccc(Cl)cc2Cl)c1
→ -6, 3, 2, 0.1, 1, -1, -6, 3, -6.5, ?
- COc1ccc(NC(=O)CN2C(=O)NC3(CCCC3)C2=O)cc1OC
→ -16, 1, 18, -1.3, -5, -4, 23, 0, 0.2, -3.0
- COc1cccc(C2(O)C(=O)Nc3ccccc32)c1 (centres undefined)
→ -6, 7, 4, -4.1, /, -3, -13, 3, -5.7, -0.4
- O=S(=O)(c1cccc(COc2c(Cl)cccc2Cl)c1)N1CCOCC1
→ -5, -33, -44, -11, 7, -1, 19, 0, 3.1, -0.1
- Nc1nc(SCc2ccc(Cl)cc2Cl)n[nH]1
→ -4, /, /, /, /, 34, 12, -7, -8.0, -0.8
- C/C=C/C(=O)Nc1cccc(C2=NOC3(C2)C[C@@H](C(N)=O)N(C(=O)c2cc([N+](=O)[O-])cc([N+](=O)[O-])c2C)C3)c1 (some centres undefined)
→ /, 9, 23, 5.6, 4, -1, 0, -3, 1.7, -1.0
- O=C(Nc1ccc(Oc2ccc3c(c2)C(=O)N(c2ccc(O)cc2)C3=O)cc1)c1cccs1
→ /, /, /, /, 3, 4, -2, -5, 1.9, 0.5
- CC(C)[C@H](NC(=O)c1ccccc1Cl)C(=O)OCC(=O)NC(=O)NCc1ccco1
→ /, 0, 10, -0.7, -2, /, /, 0, -1.4, -0.1
- CCOc1ncccc1C(=O)OCC(=O)c1ccccc1
→ /, 15, 9, 1.7, 0, 3, -18, 5, 0.3, -5.9
